HTT promoter inh = Primary qHTS for Identification of Small Molecule Inhibitors of Huntingtin Promoter Activity; HEK293 HTT promoter firefly luciferase reporter (activity 0% = vehicle and -100% = no light), 24 h; hit rate 0.93% among 48,000; Potency, µM (top dose mostly 57.5 µM), inactives show top-dose activity change, negative = inhibition, actives largely listed as inhibitors; AID 1508623, 2021; active means well fitted inhibition curve with a large enough effect; inconclusive means small, poorly fitted or top-dose-only effect; inactive means no such curve, though single readings can be large or run the other way; further: nearly all actives have a fitted effect of over 50% in size
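HEK293 Fluc reporter, 2,500 cells/well, 24 h pre-culture; cpds up to 57.5 uM final, 24 h 37 degrees C; Dual-Glo, 10 min RT; normalized vehicle = 0%, zero RLU = -100%.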
PMP22 txn = Cell-based coincidence reporter assay to measure PMP22 gene transcription in S16 Pmp22-F2sN cells - Primary screen | S16 Pmp22-F2sN Schwann cells (luciferase reporters placed in the Pmp22 gene), FLuc/NLuc coincidence luminescence, 24 h | Potency, µM (top dose mostly 57.5 µM), inactives show top-dose activity change, negative = inhibition, usual class: inhibitors | hit rate 2% among 43,000; active = clear falling dose curves in both reporters; inconclusive = both reporters move, but less clearly or upward; inactive = either reporter flat; the % is the NLuc reporter signal; further: on the % scale 0 is the no-effect control and ±100 the full control effect; some results filed as inactive show a strong effect at the top dose
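qHTS, 1536-well. Cells seeded, compounds added by pin tool, 24 h 37C. Nano-Glo reagent 1 (lysis/FLuc), 10 min RT, read; Stop&Glo, 10 min RT, read NLuc.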
* = called active by the depositor; ? = inconclusive; nt = not tested or not shown; [ ] = remark or other dose. Potency means the concentration at half of the fitted maximal effect.

SMILES	PMP22 txn	HTT promoter inh
Cn1cc(S(=O)(=O)c2ccccc2)c(=O)c2cc(F)c(N3CCCCCC3)cc21	-15%	-25%
Cc1cc(NS(=O)(=O)c2ccc(NC(=O)COc3c(C)cc(Br)cc3C)cc2)no1	18%	-11%
CCOc1cc(CNC(=O)c2ccc(NC(=O)c3nsc4ccccc34)cc2)ccc1OC	7%	?
COc1ccc(CNC(=O)c2cnc3ccc(C)cn3c2=O)cc1	-12%	-16%
O=C(Cn1c(SCCOc2ccccc2Cl)nc2ccccc21)N1CCCCC1	?	-12%
Nc1ccc(S(=O)(=O)c2ccc(N)cc2)cc1	nt	4%
COc1ccc(CCNC(=O)CSc2nnc(-c3ccc(C)cc3)c(-c3ccc(C)cc3)n2)cc1OC	?	4%
CCn1c(CN2CCCCC2)nc2cc(NC(=O)c3ccc([N+](=O)[O-])cc3)ccc21	-13%	?
CCOc1ccc(CNC(=O)CCn2cccn2)cc1OC	-18%	0%
CCCc1nn2c(=O)cc(COC(=O)c3ccco3)nc2s1	?	-25%
Cc1ccc(NC(=O)Cn2c(=O)c3ccccc3n3nncc23)cc1	?	-20%
CCOC(=O)c1ccccc1NC(=O)Cn1c(=O)n(CCCC(=O)NCc2ccc3c(c2)OCO3)c(=O)c2ccccc21	?	-6%
CCCCCOC(=O)CSc1ncnc2sc3c(c12)CCC(C)C3 (configuration not stated)	-10%	10%
CC(=O)c1ccc(NC(=O)CSc2nc(C3CCCC3)nc3c2c(=O)n(C)c(=O)n3C)cc1	?	-5%
O=C(CN1CCCN(Cc2cccc(F)c2)S1(=O)=O)Nc1ccc2c(c1)OCCO2	-8%	0%
CCc1nc2onc(C)c2c(=O)n1CC(=O)O	-6%	-13%
CCCCCn1c(=O)[nH]c2cc(C(=O)N3CCN(c4cc(Cl)ccc4C)CC3)ccc2c1=O	?	-12%
CC(=O)N1CCc2cc(Br)cc(S(=O)(=O)CCC(=O)N3CCN(c4cccc(C)c4C)CC3)c21	?	?
CCCCNC(=O)CSc1nc2cc3c(cc2c(=O)n1CCCC(=O)NCc1ccc(OC)cc1)OCO3	10%	-16%
Cc1ccc(-n2ccnc(NCc3cccs3)c2=O)cc1C	?	?
Cc1ccccc1NC(=O)CSc1nc(=O)n(CCN2CCOCC2)c2c1CCC2	-1%	-10%
Cc1ccc(Nc2c(-c3ccc(C)cc3)nc3cnccn23)cc1	?	-22%
O=C(CSCc1cnn(-c2ccccc2)c1-n1cccc1)NCc1ccccc1Br	2%	-18%
CCN(CC)CCNC(=O)CCn1c(=O)c2cccn2c2cccnc21	-9%	-3%
O=C(Nc1ccc(Br)cc1)c1cccc(S(=O)(=O)N2CCc3ccccc32)c1	?	25µM*
COCCCNc1nc(NCc2ccccc2OC)c2cnn(C)c2n1	?	?
O=C(CNC(=O)c1ccccc1F)OCc1cc(=O)n2nc(C3CC3)sc2n1	1%	-11%
COc1ccc(Cl)cc1NC(=O)c1sc(-n2nc(C)c(Cc3ccccc3)c2C)nc1C	-23%	3%
COC(=O)c1ccc(NC(=O)CCn2cnnn2)cc1	-3%	-6%
CCC1CN(C(=O)N2CCC(C(=O)NCCOC)CC2)c2ccccc2O1 (configuration not stated)	0%	-1%
CCOC(=O)c1[nH]c(C)c(CCC(=O)N2CCN(c3ccc(OC)cc3)CC2)c1C	-3%	-14%
Cc1nn(C)c2c1c(-c1ccccc1)cc(=O)n2CC(=O)Nc1ccccc1C(F)(F)F	8%	-15%
CCOc1ccc(CCNC(=O)CCc2c(C)nc3c4c(C)cc(C)nc4nn3c2C)cc1	-19%	-8%
CCC1CN(S(=O)(=O)c2ccc3c(c2)NC(=O)CC(=O)N3)c2cc(Cl)ccc2O1 (configuration not stated)	?	?
Cc1ccc(Cc2nc3ccccc3nc2SCC(=O)N2CCC(C)CC2)cc1	?	?
CC(C)C(=O)OCc1cc(=O)n2nc(C3CC3)sc2n1	-3%	18%
Cc1ccc(N(Cc2cccs2)C(=O)c2ccccc2Cl)cc1	12%	-29%
CSc1ncc(C(=O)Nc2ccc(F)cc2F)c(-c2ccccc2)n1	-6%	4%
COc1ccccc1CNS(=O)(=O)c1cc(-c2cc(C)no2)ccc1C	-6%	-32%
CC1CCc2nc3ccc(S(=O)(=O)N4CCC(C(=O)NCc5ccccc5Cl)CC4)cc3c(C(=O)O)c2C1 (configuration not stated)	1%	-26%
COc1cccc(N2C(=O)N(Cc3ccc(C#N)cc3)c3ccccc3S2(=O)=O)c1	-6%	-23%
Cc1cccc(NCc2nnc3n2CCCCC3)c1C	-6%	-7%
CCOC(=O)c1c(S(=O)(=O)NCC(=O)N2CCN(c3cc(C)ccc3C)CC2)c(C)n(C)c1C	5%	-21%
Cc1ccc(Cn2c(CCCNC(=O)C3CCCCC3)nc3ccccc32)cc1	?	-24%
COc1ccc(Nc2c(-c3ccc(N4CCOCC4)cc3)nc3ncccn23)cc1OC	18%	-2%
O=C(c1ccco1)n1nc(-c2ccccc2)nc1NCc1ccccc1Cl	-15%	-5%
O=C(O)c1cc(O)c2c(c1)C(=O)c1cccc(O)c1C2=O	nt	-10%[116 µM]
CCC(=O)N1CCc2cc(CNS(=O)(=O)c3ccc(NC(=O)CC(C)C)cc3)ccc21	?	?
COCCNC(=O)CCCn1c(SCC(=O)NCc2ccc(C)cc2)nc2c(sc3ccccc32)c1=O	-38%	-2%
CC1CCN(S(=O)(=O)c2nnc(NC(=O)c3cccc(Cl)c3)s2)CC1	-6%	?

Continued:
SMILES	PMP22 txn	HTT promoter inh
CC(C)CCNC(=O)c1cn(C)c2ccc(S(=O)(=O)N3CCOCC3)cc2c1=O	-11%	-22%[11.5 µM]
O=S(=O)(c1ccccc1)c1nnn2c1nc(Nc1ccccc1)c1cc(Cl)ccc12	?	-15%
CCOC(=O)c1c(Nc2ccc(C)cc2)nnc(-c2ccccc2)c1-c1ccccc1	?	?
COc1cccc(/C=C(\C#N)C(=O)Nc2ccc(NC(C)=O)cc2)c1OC	-3%	-13%
O=C(NCCc1ccccc1)c1cnc2sc(N3CCCCCC3)nn2c1=O	-29%	19%
COc1ccc(Br)c2c1-c1nc(NC(=O)c3ccccc3SC)sc1C2	?	-4%
Cc1cc(C)cc(NC(=O)C2CCCN(c3nnc(-n4c(C)ccc4C)s3)C2)c1 (configuration not stated)	?	-21%
COC(=O)c1ccc(-n2nnc(-c3nc(-c4ccc5c(c4)OCO5)no3)c2C)cc1	8%	-7%
Cn1c(=O)[nH]c(=O)c2c1nc(CN1CCN(c3ccccc3)CC1)n2Cc1c(F)cccc1Cl	-24%	-13%
CCOc1ccc(NC(=O)c2c(Nc3ccc(OC)cc3OC)sc(C(=O)c3ccc(Cl)cc3)c2N)cc1	-19%	-15%
CN(C)c1ccc(-c2nc3ccc(Cl)cn3c2Nc2ccc3c(c2)OCCO3)cc1	-55%	34%
CCOC(=O)c1cccc(NC(=O)c2cc3sccc3n2Cc2ccc(Cl)cc2)c1	?	-21%
CCc1cccc(C)c1NS(=O)(=O)c1cc(-c2cc(C)no2)ccc1C	-6%	?
COc1ccc(OCC(=O)N(Cc2cccc(OC)c2)C2CCS(=O)(=O)C2)cc1 (configuration not stated)	-6%	-2%
COc1ccc(-n2ccnc2SCC(=O)Nc2ccc3c(c2)OCO3)cc1	-34%	?
CC(C)c1ccc(NC(=O)Cc2ccc(NC(=O)N3CCCCc4ccccc43)cc2)cc1	?	-20%
O=C(CSc1oc(-c2ccccc2)nc1S(=O)(=O)c1ccc(Br)cc1)c1ccccc1	?	?
O=C(Cn1cccc1C(=O)c1ccccc1)NCc1ccc(Cl)cc1	1%	-7%
CCc1ccccc1NC(=O)CSc1nc(-c2cccc(Cl)c2)nc2c1Cc1c(CO)cnc(C)c1O2	?	-3%
CC(=O)c1ccc(NS(=O)(=O)c2ccc(-c3cc(C)no3)s2)cc1	7%	?
COc1ccc(OC)c(S(=O)(=O)NCCS(=O)(=O)N2CCN(c3ccccc3F)CC2)c1	0%	?
CC(=O)c1ccc(NC(=O)c2ncn(-c3ccccc3)n2)cc1	2%	75%[activator]
O=C(Nc1ccc(F)cc1F)C1CCCN1S(=O)(=O)c1cccc2nsnc12 (configuration not stated)	7%	-10%[11.5 µM]
COc1ccc(Oc2ncnc3c2oc2ccccc23)cc1	-2%	41%[activator]
CC(C)Cn1c(C2CC(=O)N(c3ccccc3Cl)C2)nc2ccccc21 (configuration not stated)	?	2%
CCOC(=O)c1c(C)oc2ncnc(Nc3cc(C)cc(C)c3)c12	-13%	8%
Fc1ccc2c(c1)-c1c(cnc3cc(-c4ccc(Cl)cc4)nn13)CO2	2%	6%
Cc1cc(OCC(=O)Nc2ccc(-c3nc4cc(Cl)ccc4o3)cc2)cc(C)c1Cl	-4%	21%
CC(C)(C)c1ccccc1NC(=O)c1cnn2c(C(F)F)cc(-c3ccccc3)nc12	?	-6%
CCN(C(=O)c1c(C)oc2ncnc(N3CCCCC3)c12)c1cc(C)ccc1C	-3%	-3%
COc1ccc(Cn2c(=O)n(-c3ccccc3C)c(=O)c3c4c(sc32)CN(C(C)=O)CC4)cc1	?	-23%
O=C(Cn1c(=O)oc2cc(S(=O)(=O)NCc3ccccc3)ccc21)N(CCO)Cc1ccccc1	-30%	?
O=C(CN1CCN(Cc2ccccc2F)C1=O)NCc1ccccc1	-1%	0%
O=C(Cn1c(SCC(=O)Nc2ccc(F)cc2)nc2ccccc21)NCc1ccc(Cl)cc1	?	?
CCCSc1ncc(Cl)c(C(=O)Nc2ccc(S(=O)(=O)N3CCCC(C)C3)cc2)n1 (configuration not stated)	-24%	?
CCN(CC)C(=O)c1sc2c(c1C)c(=O)n(-c1ccc(OC)cc1OC)c(=O)n2Cc1cc(C)ccc1C	?	0%
CN(C)c1ccc(C(CNS(=O)(=O)c2cc(F)ccc2F)N2CCOCC2)cc1 (configuration not stated)	-3%	2%
CCn1c(SCC(=O)Nc2cccc(Cl)c2)nnc1-c1nonc1NC(C)=O	-60%	-18%
CCOc1cc(C=C2C(=O)N(c3ccccc3)N=C2C)cc(Cl)c1OCC(=O)OC	nt	?
CCc1ccc(S(=O)(=O)c2c[nH]c3cc(OC)c(OC)cc3c2=O)cc1	?	-21%
CCN(CC)CCNC(=O)Cn1ncc2c3ccccc3n(Cc3ccccc3C)c2c1=O	?	-5%
O=C(CSc1nc2c([nH]c3ccccc32)c(=O)n1-c1ccccc1)Nc1ccccc1C(F)(F)F	?	-13%
Cc1cccc(NC(=O)CSc2ncc3c(n2)-c2ccccc2N(Cc2ccc(F)cc2)S3(=O)=O)c1C	?	-30%
O=C(Cn1c(=O)n(Cc2ccc(F)cc2)c(=O)c2sc3ccccc3c21)NCc1ccccc1Cl	-28%	-8%
CCOCCCn1c(=N)c(C(=O)NC(C)c2ccccc2)cc2c(=O)n3cc(C)ccc3nc21 (configuration not stated)	-23%	6%
COc1ccc(CNc2n[nH]c(-c3ccco3)n2)cc1OC	5%	-10%
Cn1nc(-c2ccccc2F)c2cc(C(=O)NCc3ccc(Cl)cc3)sc21	?	?
CCS(=O)(=O)N1CC(=O)N(c2ccc(Cl)cc2)C(C)(C(=O)NC2CCCCCC2)C1 (configuration not stated)	-10%	-14%
Cc1ccc(S(=O)(=O)N2CCC(C(=O)Nc3ccc(C)c(Cl)c3)CC2)cc1	6%	?
Cc1ccc(CN2CCN(C3CCN(C(=O)Nc4ccc(C)cc4Cl)CC3)C(=O)C2=O)cc1	-9%	-4%

3 entries picked at random from those above:
SMILES	PMP22 txn	HTT promoter inh
COc1cccc(/C=C(\C#N)C(=O)Nc2ccc(NC(C)=O)cc2)c1OC	-3%	-13%
COc1cccc(N2C(=O)N(Cc3ccc(C#N)cc3)c3ccccc3S2(=O)=O)c1	-6%	-23%
O=C(CNC(=O)c1ccccc1F)OCc1cc(=O)n2nc(C3CC3)sc2n1	1%	-11%

Whole records, quoted from the list. Order of values: PMP22 txn	HTT promoter inh
Record of CCc1ccc(S(=O)(=O)c2c[nH]c3cc(OC)c(OC)cc3c2=O)cc1 : ?	-21%
Record of Cc1cccc(NC(=O)CSc2ncc3c(n2)-c2ccccc2N(Cc2ccc(F)cc2)S3(=O)=O)c1C : ?	-30%

(further entries)
SMILES	PMP22 txn	HTT promoter inh
CCCN1C(=O)c2[nH]nc(-c3cccc(OC)c3)c2C1c1ccccn1 (configuration not stated)	?	-9%
CCOc1ccc(NC(=O)NCCN2CCN(c3cccc(C)c3C)CC2)cc1	?	-29%
O=C(COc1ccccc1)Nc1nnc(SCc2cc(=O)n3cc(Cl)ccc3n2)s1	8%	8%
Cc1cccc(NC(=O)CSc2nc3n[nH]c(C)c3c(=N)n2-c2cccc(Cl)c2)c1	?	?

An excerpt; count on the stated rates, not on these rows.
